Mtb hypoxia rep: inhibitors of hypoxia-regulated fluorescent reporter in Mycobacterium tuberculosis | M. tuberculosis hypoxia-regulated fluorescent reporter, fluorescence | fluorescence inhibition, % (no concentration beside the values) | 300,000 compounds, 0.1% hits;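 active = 35 to 45% if threefold the growth effect, above 45% if 1.5-fold the growth effect; inactive = the rest, general growth blockers included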;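 note: wells of about 50 µL received 100 nL stock; 0% = vehicle wells and 100% = reference inhibitor wells; whole bacteria with a GFP reporter of the hypoxia response; strong numbers were not always called active; many hits fall short of the cut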
BJeLR lethal: kills HRASV12-expressing BJeLR cells. 300,000 compounds, 0.17% hits. inhibition, % (no concentration beside the values). BJeLR (HRASV12) viability, CellTiter-Glo ATP luminescence, 48 h; reference of the scale not given here;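 active = replicate mean above 50%; inconclusive = above 50% but judged a plate artefact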;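 note: 50 nL library stock added to about 25 µL; numbers are from one replicate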
PrP 5UTR inh: suppresses PrP 5' UTR mRNA reporter expression; cell-based PrP 5' UTR mRNA reporter, plate reader; inhibition, % (no concentration beside the values); 340,000 compounds, 0.35% hits; AID 488862;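 active = every replicate at 50% or more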;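 note: 0 = median of the neutral control wells; tested in H4 reporter cells; numbers are from one replicate; inactives centre near -14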
ugtP null kill: kills S. aureus RN4220 lacking UgtP | S. aureus RN4220 ugtP deletion, OD600 growth, 16 h; some inactives read as strong as hits | growth inhibition, % (test concentration not listed) | 330,000 compounds, 0.54% hits;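 active = z-score under -3 and OD600 up to 0.15 on both plates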;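 note: plate controls were untreated wells for no effect and antibiotic for full effect; wells of about 80 µL received 100 nL stock; the first replicate is given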
Autofluor counter: flagged as autofluorescent in microsphere protease counterscreen. 360,000 compounds, 3.1% hits. fluorescence intensity (no concentration beside the values). compound autofluorescence counterscreen, microsphere flow cytometry; active compounds read high;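 active = at least 3 SD above the mean of all compounds, about 16000 in these data; inconclusive = too few beads counted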;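 note: 100 nL of 1 mM stock went into each well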
Sa RN4220 lethal: S. aureus RN4220 growth inhibition | inhibition, % (test concentration not listed) | AID 1259311 | 330,000 compounds, 0.33% hits | OD600, 16 h;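 active = z-score of -3 or lower and OD600 up to 0.18 on both plates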;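 note: plate controls were untreated cells for no effect and reference antibiotic for full effect; stock transfer was 100 nL into about 80 µL; one replicate is shown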
Mtb hypoxia rep growth: further read-out of Mtb hypoxia rep, marked with its call; growth inhibition, %; measured here: M. tuberculosis growth (absorbance);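 0% = vehicle and 100% = reference antibiotic; read after six days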
The depositor's hits bear a star; ? = inconclusive; nt = no result given; & = joins results of further samples.

nr	SMILES	Mtb hypoxia rep	Mtb hypoxia rep growth	BJeLR lethal	PrP 5UTR inh	ugtP null kill	Autofluor counter	Sa RN4220 lethal
1	Cc1ccc(C(=O)N/C(=C/c2ccco2)C(=O)NC2CCS(=O)(=O)C2)cc1 (centres undefined)	-1	0	6	-24	3	4562	6.4
2	COc1ccccc1CN1CCC(n2nccc2NC(=O)CCCc2ccccc2)CC1	11	7	11	-24	8	5677	-0.6
3	COc1cccc(/C=C(/C(=O)OCC(=O)NC2CCCCCCC2)c2ccccc2)c1	-3	-5	-2	-20	-4	2074	-5.8
4	Cc1ccccc1NC(=O)CCC(=O)N/N=C/c1c[nH]c2ccccc12	nt	nt	3	3	nt	2384	nt
5	CCCCCCC(=O)Nc1ccc(C(=O)N2CCCC2)cc1	4	1	-4	-65	7	11443	5.4
6	CC(Oc1ccc(Cl)cc1Cl)C(=O)NN=C1CCN(C)CC1 (centres undefined)	17	6	-9	-14	6	2054	4.9
7	Cc1ccc(C(=O)NCCc2c[nH]c3ccccc23)s1	4	4	0	-49	3	3695	4.9
8	CC1(C)c2[nH]c3ccccc3c2CC2C(=O)N(Cc3ccc(F)cc3)C(=O)N21 (centres undefined)	6&19	10&11	nt	nt	1&5	nt	0.2&-0.3
9	Cc1cc(Br)cc(C)c1NC(=S)NC(=O)CC(C)C	nt	nt	2	-24	-8	3836	3.2
10	CC(C)COc1ccc(C(=O)OCCN2CCCCC2)cc1	6	8	13	-13	8	3629	4.1
11	Cc1ccc(S(=O)(=O)N(C)CC(=O)N2CCN(c3ccccn3)CC2)cc1	8	5	2	-18	1	8547	0.2
12	COc1ccc(OC)c(/C=N/NC(=O)C(=O)N2CCCC2)c1	nt	nt	2	-4	nt	4545	nt
13	COC(=O)C1CN(C(=O)COc2ccc(Cl)cc2Cl)c2ccccc2O1 (centres undefined)	6	-2	2	-27	8	3790	6.9
14	CC(=O)Nc1ccccc1N(C)S(=O)(=O)c1ccc(C)cc1	4	5	-1	-17	-3	4372	1.4
15	Cc1ccc(Cl)cc1NC(=O)CCN1C(=O)C2C3CCC(C3)C2C1=O (centres undefined)	16	-2	14	-22	1	2665	1.9
16	CC(C)NC(=O)N(C)C[C@H]1Oc2c(NC(=O)Nc3ccc(C(F)(F)F)cc3)cccc2C(=O)N([C@H](C)CO)C[C@@H]1C	0	12	nt	-24	-3	4289	-22
17	COc1cccc(NC(=O)C(C)SCc2ccccc2)c1 (centres undefined)	6	-5	-8	-26	1	4376	-0.5
18	CC(CCc1ccccc1)NC(=O)[C@@H]1Cc2ccccc2CN1 (some centres undefined)	4	-9	-4	-15	2	3844	4.8
19	CC1(c2ccc([N+](=O)[O-])cc2)NC(=O)N(CC(=O)Nc2cccnc2Cl)C1=O (centres undefined)	3	9	-4	-15	10	nt	-2.4
20	Cc1cc(OC(C)C(=O)NNC(=O)Nc2ccc(F)cc2F)cc(C)c1Cl (centres undefined)	7	3	5	-5	2	5859	1.4
21	Cc1c(OCC(=O)N2CCC(C(=O)O)CC2)ccc2c3c(c(=O)oc12)CCCC3	nt	nt	-3	-20	9	4233	-0.4
22	Cc1cccc(NC(=O)CNC(=O)Cc2ccc3c(c2)OCCO3)c1C	4	1	nt	10	1	6513	3.9
23	CN(C(=O)C1CCN(S(=O)(=O)c2cccc3nonc23)CC1)C1CCCCC1	10	3	1	-19	11	nt	7.0
24	O=C(COC(=O)/C=C/c1ccccc1[N+](=O)[O-])NC1CCS(=O)(=O)C1 (centres undefined)	7	9	-10	-16	16	4526	5.7
25	CCn1c(SC)nc2cc(S(=O)(=O)N3CCCCC3)ccc21	-14	-4	nt	-2	1	3434	2.2
26	NC(N)=NN=Cc1ccc(OCc2ccccc2Cl)cc1	11	11	nt	nt	101*	nt	100*
27	CC(=O)c1ccc(NC(=O)C(NC(=O)c2ccccc2)=C(C)C)cc1	0	7	-3	-36	2	3367	0.9
28	CC(C)C12CN3CCN(CC(C3)/C1=N\NC(=O)Nc1ccccc1)C2	nt	nt	-3	-16	nt	2733	nt
29	CCSc1ncnc2sc(C)c(C)c12	5	-7	4	3	30	2244	5.8
30	CCNS(=O)(=O)c1ccc(CCC(=O)Nc2ccccc2C(=O)OC)cc1	1	-3	-2	-10	1	2307	3.3
31	CCOC(=O)Nc1ccc2c(c1)nc(CN1CCN(C(C)=O)CC1)n2C	-2	5	-6	-27	-3	9015	-0.3
32	CCOc1ccccc1-n1c(SCC(=O)N2CCCc3ccccc32)nnc1-c1cccnc1	2	-3	8	0	3	2406	5.5
33	O=C(c1nc2ccccn2c1CNCCOc1cccnc1)N1CCOCC1	5	3	3	-5	2	3401	-0.2
34	Cc1ccc(/C=C2\SC(=O)N(CCNC(=O)C3CSC4(C)CCC(=O)N34)C2=O)cc1 (centres undefined)	1	3	3	-19	7	5168	5.5
35	CCN(CC)c1nc(-c2nn[nH]n2)nc(N(CC)CC)n1	-5	-6	8	-20	0	?	-0.3
36	CCOC(=O)c1c(C=O)c2ccccc2n1Cc1ccccc1F	-12	-2	6	9	32	3843	-2.1
37	Cc1ccc(-c2nn(CCC(=O)Nc3cccnc3)c(=O)c3ccccc23)cc1	6	7	-5	nt	8	nt	2.4
38	Cn1c(=O)c2c(ncn2CC(=O)NN=C/C=C/c2ccco2)n(C)c1=O	-1	8	nt	nt	0	nt	-2.1
39	N#Cc1cncc(C#Cc2ccccc2)c1	15	5	-4	0	4	4487	3.9
40	CCCOc1ccc(C(=O)N2CCCc3ccccc32)cc1	20	4	12	-17	9	?	1.7
41	CCOC(=O)C/C(C)=N/NC(=O)Nc1ccccc1	nt	nt	-11	-6	nt	2646	nt
42	c1ccc2[nH]c(CCNC3CCCCC3)nc2c1	3	9	2	-23	-4	5634	6.9
43	O=C(COC(=O)CC(c1ccccc1)c1ccccc1)NCc1ccccc1	1	4	-7	-7	14	2026	-4.5
44	O=C(NC1(C(F)(F)F)NC(=O)N(c2ccc(F)cc2)C1=O)c1cccs1 (centres undefined)	0	-1	1	-51	2	2618	-0.1
45	CCN(C(=O)CSc1nc2ccccc2c(=O)n1C(C)COC)C1CCS(=O)(=O)C1 (centres undefined)	9	2	-10	-16	1	4444	4.7
46	Cc1cc(Cl)ccc1NC(=O)NC1CCN(S(=O)(=O)c2ccc(F)cc2)CC1	nt	nt	12	-8	-1	2582	-4.1
47	COc1ccc(-c2coc3cc4oc(=O)cc(C)c4cc23)cc1F	14	7	1	20	-14	11192	17
48	O=S(=O)(c1ccccc1S(=O)(=O)N1CCCCC1)N1CCCCC1	-7	-10	-4	-15	-10	11086	0.8
49	COCCNC(=O)c1onc(CSc2cccc(OC)c2)c1C(=O)O	6	14	-8	-39	1	3853	4.9
50	CCCn1c2c(c(O)c(C(=O)Nc3ccccc3)c1=O)CCCC2	-8	8	3	-6	-4	2386	7.9

Following part
nr	SMILES	Mtb hypoxia rep	Mtb hypoxia rep growth	BJeLR lethal	PrP 5UTR inh	ugtP null kill	Autofluor counter	Sa RN4220 lethal
51	O=C(N/N=C/c1ccncc1)/C(=C/c1ccccc1)NC(=O)c1ccccc1	nt	nt	-6	32	nt	10522	nt
52	Cc1ccc(Cl)c(OCC(=O)Nc2ccccc2C(=O)NC2CC2)c1	1	1	-5	0	7	6432	1.2
53	O=C(Nc1ccnc(-c2ccncc2)n1)C1CC1	17	13	-11	1	8	2577	2.8
54	Cc1ccc2[nH]c(C)c(CC(=O)NCc3ccccc3)c2c1	8	8	-4	-17	4	3668	4.2
55	O=C(NCc1cccnc1)c1ccc(NS(=O)(=O)c2ccccc2)cc1	11	7	4	-3	10	5900	3.1
56	CC(C)CN1CCN(Cc2ccc3ncccc3c2)CC1CCO (centres undefined)	14	8	18	7	0	3963	2.4
57	C=CCc1cc(Cl)ccc1OCCCNCCO	9	2	0	-22	-17	2110	-3.2
58	CCN(C(=O)CSc1nnc(NCCOC)s1)c1c(N)n(Cc2ccccc2)c(=O)[nH]c1=O	1	-1	nt	-5	9	2878	2.6
59	O=C(O)c1cc(-c2ccccc2)c(N2CCOCC2)s1	nt	nt	-14	-12	-6	2262	5.1
60	OC1(C#Cc2c(-c3ccsc3)oc3ccc(N4CCOCC4)cc23)CCCCC1	-1	8	6	-14	2	3734	-4.3
61	C[C@H](CO)N1C[C@H](C)[C@@H](CN(C)C(=O)Nc2ccc3c(c2)OCO3)Oc2c(NC(=O)Nc3ccc4c(c3)OCO4)cccc2C1=O	11	7	nt	-13	2	3663	-12
62	CCN(CC)c1ccc(C=NN2CCN(Cc3ccccc3)CC2)c(O)c1	7	8	nt	nt	6	nt	7.2
63	CSc1cccc(NC(=O)CN2C(=O)COc3ccc(S(=O)(=O)N4CCOCC4)cc32)c1	-6	-6	-1	-19	1	5100	4.7
64	COc1cccc(C(=O)C2CCCN(Cc3cccn3-c3cccnc3)C2)c1 (centres undefined)	11	11	-2	-22	9	2630	3.8
65	Cc1nc(C(F)(F)F)ccc1C(=O)Nc1ccc(C(F)(F)F)cn1	10	2	5	-45	7	5455	2.0
66	Cc1cccc(C)c1N1C(=O)[C@@H]2C(c3ccccc3Cl)=NO[C@@H]2C1=O	13	0	0	-15	4	5482	-0.2
67	Cc1cccc(/N=C/c2c(O)n(Cc3ccc4c(c3)OCO4)c(=O)c3ccccc23)n1	6	9	8	-5	3	3849	3.1
68	Cc1ccc(SCCCn2cnc3ccccc3c2=O)cc1	5	1	12	10	14	3269	4.4
69	COC1=C(OC)[C@]23CCc4ccc(OC)c(OC)c4[C@]2(CCN3C)CC1=O	6	7	nt	-8	-7	2929	4.3
70	CC(=O)Nc1c2c(nn1-c1ccccc1)CSC2	-3	-7	0	-10	5	4456	2.4
71	O=[N+]([O-])c1ccccc1CNCCO	19	6	nt	-9	6	3699	2.3
72	O=C(CNc1ccc(Br)cc1)NNC1=NCCC1	23	-5	5	-17	14	11497	6.2
73	CC(NC(=O)CCN1N=C(c2ccccc2)CCC1=O)c1ccc2c(c1)OCCO2 (centres undefined)	7	0	-1	nt	1	nt	0.7
74	CC1(C(=O)O)CCC(C(=O)NC2CCCCCC2)C1(C)C (centres undefined)	6	7	0	-13	3	21823*	1.6
75	CCC(C(=O)NC1CCCC1)N(C(=O)Cn1nnc(-c2cccs2)n1)c1cnc2ccccc2c1 (centres undefined)	-11	-5	-6	-10	-5	4280	-0.4
76	CCCOc1ccc(N2C(=O)CC(NCCCN3CCC(C(N)=O)CC3)C2=O)cc1 (centres undefined)	nt	nt	-3	-6	1	4430	0.8
77	CC1Cc2ccccc2N1C(=O)CSc1ncc(-c2ccc(F)cc2)n1C (centres undefined)	-2	7	7	-70	-4	2225	-0.3
78	O=C(CCN1C(=O)[C@@H]2Cc3ccccc3CN2C1=O)NCc1ccc(Cl)cc1	9	6	9	-10	-4	4894	6.0
79	COc1ccc(C=NNC(=O)c2ccc(F)cc2)cc1COc1ccccc1C(N)=O	5	1	nt	nt	6	nt	3.5
80	Cc1ccc(N(C)C(=O)Oc2cccc3cccnc23)cc1	20	16	-4	-10	14	3065	9.1
81	COc1ccc(S(=O)(=O)Nc2ccc3c(c2)C(=O)N(C(C)CO)CC(C)C(CN(C)C(=O)Nc2ccc(C(F)(F)F)cc2)O3)cc1 (centres undefined)	11	9	nt	nt	3	nt	0.8
82	O=C(Nc1ccccc1Oc1cccnc1)C1CCCN(C/C=C/c2ccccc2)C1 (centres undefined)	5	-10	1	-10	4	4544	5.7
83	CCN(CC)CCCNC(=O)C1c2ccccc2C(=O)N(C)C1c1ccc(OC)cc1 (centres undefined)	-8	-3	-1	-3	-4	3533	-0.1
84	Cc1cc(C)nc(NS(=O)(=O)c2ccc(NC(=O)c3cccs3)cc2)n1	nt	nt	-4	-10	11	3573	1.8
85	CCCCn1c(SCC(=O)NC(=O)Cc2ccccc2)nc2ccccc2c1=O	3	0	nt	-16	-5	2885	-0.5
86	COC(C/C=C/[C@@H](O)[C@H](C)OCc1ccccc1)OC	nt	nt	-5	-1	nt	3543	nt

Entries of single compounds as entered above. Order of screens: Mtb hypoxia rep | Mtb hypoxia rep growth | BJeLR lethal | PrP 5UTR inh | ugtP null kill | Autofluor counter | Sa RN4220 lethal
`COc1ccc(S(=O)(=O)Nc2ccc3c(c2)C(=O)N(C(C)CO)CC(C)C(CN(C)C(=O)Nc2ccc(C(F)(F)F)cc2)O3)cc1` (centres undefined) as listed: 11 | 9 | nt | nt | 3 | nt | 0.8
`O=C(Nc1ccccc1Oc1cccnc1)C1CCCN(C/C=C/c2ccccc2)C1` (centres undefined) as listed: 5 | -10 | 1 | -10 | 4 | 4544 | 5.7

Assay outcomes from PubChem.
